Compound activity as filed in PubChem.
MLL AF4-AF9 inh: inhibitors of AF4 peptide binding to AF9, primary screen, biochemical, AlphaScreen, biotin-AF4 peptide, FLAG-AF9, single point; AID 651704, 2012; inhibition, % at 10 µM; Protein AF-9 (Homo sapiens), P42568; 350,000 compounds, 0.47% hits;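 active means every replicate reaching a set inhibition limit, whatever the replicate mean, cut at about 25% in these data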;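 further: 0% = plate neutral control median and 100% = total signal loss; the record names both 10 and 1 µM as test concentration; the first replicate is given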
Target sequence (P42568 whole entry, looked up): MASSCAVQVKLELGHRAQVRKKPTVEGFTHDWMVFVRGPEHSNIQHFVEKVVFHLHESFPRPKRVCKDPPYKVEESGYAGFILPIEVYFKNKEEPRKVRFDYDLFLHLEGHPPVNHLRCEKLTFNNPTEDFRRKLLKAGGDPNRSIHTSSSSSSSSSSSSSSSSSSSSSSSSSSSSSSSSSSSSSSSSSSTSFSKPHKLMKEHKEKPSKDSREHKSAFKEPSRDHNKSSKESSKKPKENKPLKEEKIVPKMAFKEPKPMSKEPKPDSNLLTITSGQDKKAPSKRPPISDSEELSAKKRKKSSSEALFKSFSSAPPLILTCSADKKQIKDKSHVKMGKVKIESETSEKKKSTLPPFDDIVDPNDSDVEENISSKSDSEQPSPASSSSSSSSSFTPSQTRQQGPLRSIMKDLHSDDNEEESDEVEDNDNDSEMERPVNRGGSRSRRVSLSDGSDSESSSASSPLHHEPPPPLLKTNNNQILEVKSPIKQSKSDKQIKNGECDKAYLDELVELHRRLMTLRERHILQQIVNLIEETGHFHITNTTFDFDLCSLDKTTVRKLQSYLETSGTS
Ecoli rRNA inh: reduced GFP signal of wild-type E. coli, primary screen, bacterial rRNA inhibitor project, GFP/RFP fluorescence, OD600, single point | GFP signal change (wild-type ribosome), % (concentration not given with the values) | AID 720706, 2013 | E. coli WT GFP vs humanized-ribosome RFP mutants, 24 h; stronger effect = lower value; DMSO median 0, no signal -100 | 350,000 compounds, 1.6% hits;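 active means significant combined selectivity score with lowered wild-type GFP, culture density cut under 30%, mutant RFP and density less affected; inactive means any of these conditions unmet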; further: one replicate is shown; some compounds called inactive have numbers as strong as hits
FGF22 binding: binders of human FGF22 protein, primary screen, FGF22 synaptogenesis inhibitor project, biophysical, thermal shift, single point; Fibroblast growth factor 22 (Homo sapiens), Q9HCT0; recombinant FGF22 thermal shift, SYPRO orange fluorescence; percent of sucrose octasulfate shift, DMSO zero; calls only at 9.99 µM; 340,000 compounds, 1.5% hits;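 active means melting point raised past a set limit in the mean and every replicate; three in four hits are not shown here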
Target sequence (Q9HCT0 whole entry, looked up): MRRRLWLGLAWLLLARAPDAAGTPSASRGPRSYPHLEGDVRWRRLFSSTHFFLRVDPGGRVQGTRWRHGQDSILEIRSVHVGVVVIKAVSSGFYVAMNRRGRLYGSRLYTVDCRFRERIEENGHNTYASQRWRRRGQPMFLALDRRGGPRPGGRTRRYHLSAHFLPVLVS
Ecoli rRNA inh OD600: recorded beside Ecoli rRNA inh, whose call it bears; OD600 change, %; measured here: OD600 growth;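 optical density of the mix in the first replicate; 0 = DMSO median and -100 = no signal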
Ecoli rRNA inh RFP: recorded beside Ecoli rRNA inh, whose call it bears; RFP signal change, %; measured here: RFP humanized mutant strains;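 first replicate; 0 = DMSO median and -100 = no signal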
Numbers without * were called inactive; i = inactive. This is a subset. The share of hits here may be higher or lower than overall.

SMILES	MLL AF4-AF9 inh	Ecoli rRNA inh	Ecoli rRNA inh OD600	Ecoli rRNA inh RFP	FGF22 binding
Cc1ccc(S(=O)(=O)N[C@H]2CC[C@@H](CCNC(=O)c3ccc4c(c3)OCO4)O[C@@H]2CO)cc1	2.1	1	5	-2.0	i
C[C@@H]1CN([C@@H](C)CO)C(=O)c2cc(-c3cccnc3)cnc2O[C@@H]1CN(C)C(=O)Cc1cccnc1	-3.6	5	20	-3.5	i
C[C@H]1CCCCO[C@H](CN(C)S(=O)(=O)c2cccs2)[C@@H](C)CN([C@@H](C)CO)C(=O)c2cc(NS(=O)(=O)c3cccs3)ccc2O1	2.8	-3	-10	-2.0	i
CCOC(=O)c1ccccc1NC(=O)CSc1nc2c(sc(=S)n2CC)c(=O)[nH]1	-1.8	-3	2	-0.6	i
CCCN1C[C@H](C)[C@@H](OC)CN(C)C(=O)c2ccc(NC(=O)Nc3c(C)noc3C)cc2OC[C@H]1C	-0.8	-2	-7	-2.2	i
C[C@@H]1CCCCO[C@H](CN(C)Cc2ccccc2)[C@@H](C)CN([C@H](C)CO)C(=O)c2cc(NC(=O)C3CCCCC3)ccc2O1	1.2	10	5	-1.6	i
COc1ccc(CNS(=O)(=O)CCNCc2ccccc2OC)cc1	-0.2	9	7	2.3	i
CNC[C@@H]1Oc2ccc(NS(=O)(=O)c3cccs3)cc2CC(=O)N([C@H](C)CO)C[C@H]1C	-1.9	6	10	-1.2	i
COc1ccc(Cc2c(C3CCCCC3)nc3c(C)cc(Br)cn23)c(C)c1	5.9	8	-11	0.8	i
O=C(C[C@H]1CC[C@H]2[C@@H](COC[C@@H](O)CN2CCc2ccccc2)O1)NCc1ccc(Oc2ccccc2)cc1	0.9	-22	-46	14	i
C[C@H](CO)N1C[C@H](C)[C@H](CN(C)CC2CCCCC2)Oc2ccc(NS(=O)(=O)c3cn(C)cn3)cc2CC1=O	-2.4	3	-5	-2.4	i
Cc1ccc(S(=O)(=O)Nc2cccc3c2O[C@@H](CN(C)S(=O)(=O)c2ccc(Cl)cc2)[C@@H](C)CN([C@H](C)CO)C3=O)cc1	1.6	-1	3	1.0	i
Cc1c(NC(=O)COC(=O)/C=C/c2cccc(F)c2)c(=O)n(-c2ccccc2)n1C	0.2	1	-1	-1.4	i
CCCCn1c(N)c(N(CC(C)C)C(=O)CC(NC(=O)c2ccccc2Cl)c2ccccc2)c(=O)[nH]c1=O (centres undefined)	-2.9	13	20	1.8	i
O=C(C[C@H]1C=C[C@@H](NC(=O)C2CCOCC2)[C@@H](CO)O1)NCc1ccncc1	-1.3	1	10	1.4	i
Cc1noc(C)c1S(=O)(=O)Nc1ccc2c(c1)C(=O)N([C@@H](C)CO)C[C@@H](C)[C@@H](CN(C)Cc1ccc(-c3ccccc3)cc1)O2	9.9	-8	-30	17	i
CCCC(=O)Nc1ccc2c(c1)C(=O)N(C)[C@H]1CC[C@@H](CC(=O)NCCCN(C)C)O[C@@H]1CO2	-0.7	1	5	-1.4	i
C[C@H]1CN([C@@H](C)CO)C(=O)CCCn2cc(nn2)CO[C@H]1CN(C)C(=O)Nc1cccc2ccccc12	0.4	2	-3	0.4	i
COC(=O)c1cnc(Nc2nc(C(N)Cc3ccc(OC)cc3)cs2)nc1C(F)(F)F (centres undefined)	-0.7	-43	-49	-9.3	i
C[C@H](c1ccccc1)N1C[C@@H](COCc2ccccc2)Oc2cc(N3CCC[C@H]3CO)ccc2S1(=O)=O	-1.8	1	-9	8.6	i
COC(=O)[C@@H]1[C@@H](CO)[C@@H]2Cn3c(ccc(/C=C/c4ccccc4)c3=O)[C@@H]2N1C(=O)C1CCCC1	-5.1	-1	4	4.6	i
C[C@@H]1CCCCO[C@@H](CN(C)Cc2ccc3c(c2)OCO3)[C@@H](C)CN([C@@H](C)CO)C(=O)c2cc(NC(=O)CCC(F)(F)F)ccc2O1	3.8	2	0	-0.1	i
Cc1cc2c(nc1C)CCCN2Cc1ccccn1	1.4	14	8	8.6	i
CCCS(=O)(=O)NC(=O)C1(C)CCN(C(=O)c2ccccc2OC)C1 (centres undefined)	-0.3	6	9	0.7	i
C[C@H]1CCCCO[C@@H](CN(C)C(=O)c2ccncc2)[C@@H](C)CN([C@@H](C)CO)C(=O)c2cc(NS(=O)(=O)c3ccc(F)cc3)ccc2O1	-1.3	1	5	0.5	i
C[C@@H]1CN([C@@H](C)CO)C(=O)c2cccc(NC(=O)Nc3ccc(F)cc3)c2O[C@H]1CN(C)Cc1ccncc1	-3.4	1	-2	-0.3	i
C[C@H](CO)N1C[C@H](C)[C@@H](CN(C)C)Oc2ncc(-c3ccc(C(=O)N(C)C)cc3)cc2C1=O	-3.7	5	1	-1.1	i
NC(=O)C[C@@H]1NC(=O)c2cc([N+](=O)[O-])cc(F)c2NCCCC[C@@H](C(N)=O)NC(=O)[C@H](CO)NC1=O	-3.6	9	21	4.7	i
CCCCn1nnnc1C1(C)CCC(=O)N1CCCn1ccnc1 (centres undefined)	0.4	9	3	5.2	i
C[C@H](CO)N1C[C@H](C)[C@@H](CN(C)S(C)(=O)=O)Oc2c(NC(=O)Nc3cccc4ccccc34)cccc2C1=O	-2.1	-5	-4	0.0	i

One compound at a time, as listed above.
Record of Cc1cc2c(nc1C)CCCN2Cc1ccccn1 → MLL AF4-AF9 inh: 1.4; Ecoli rRNA inh: 14; Ecoli rRNA inh OD600: 8; Ecoli rRNA inh RFP: 8.6; FGF22 binding: i
Record of NC(=O)C[C@@H]1NC(=O)c2cc([N+](=O)[O-])cc(F)c2NCCCC[C@@H](C(N)=O)NC(=O)[C@H](CO)NC1=O → MLL AF4-AF9 inh: -3.6; Ecoli rRNA inh: 9; Ecoli rRNA inh OD600: 21; Ecoli rRNA inh RFP: 4.7; FGF22 binding: i

Carrying on:
SMILES	MLL AF4-AF9 inh	Ecoli rRNA inh	Ecoli rRNA inh OD600	Ecoli rRNA inh RFP	FGF22 binding
C[C@H](CO)N1C[C@H](C)[C@@H](CN(C)Cc2ccc(Oc3ccccc3)cc2)Oc2c(NC(=O)Nc3ccc(F)cc3)cccc2C1=O	3.1	-3	0	2.8	i
CN1c2ccc(-c3ccccc3F)cc2[C@@H]2[C@@H](CCN2S(=O)(=O)c2ccccc2F)[C@H]1CO	1.4	-9	-38	28	i
CC(C)NC(=O)N[C@@H]1CC[C@H](CC(=O)NCCN2CCCC2)O[C@@H]1CO	-1.0	3	-4	-0.8	i
Cc1ccc(NC(=O)CCC(=O)NN=Cc2ccc(C)o2)c(C)c1	0.2	22	22	7.2	i
C[C@H]1CN([C@@H](C)CO)C(=O)CCCn2nncc2CO[C@H]1CN(C)C(=O)Nc1cccc(C(F)(F)F)c1	3.0	-40	-42	8.6	i
COc1cccc(C#Cc2cnc3c(c2)C(=O)N([C@@H](C)CO)C[C@H](C)[C@H](CN(C)C(=O)C2CCCCC2)O3)c1	2.3	-6	-39	30	i
CC(C)NC(=O)N[C@H]1CC[C@@H](CCNS(=O)(=O)Cc2ccccc2)O[C@H]1CO	-5.3	0	0	2.8	i
C[C@H](CO)N1C[C@H](C)[C@H](CN(C)C(=O)c2ccccc2)OCCCC[C@H](C)Oc2ccc(NC(=O)CCCCCC(=O)Nc3ccccc3N)cc2C1=O	3.1	-2	-4	-2.2	i
CC(C)NC(=O)Nc1ccc2c(c1)C(=O)N(C)[C@H]1CC[C@@H](CC(=O)Nc3ccccc3)O[C@H]1CO2	0.1	0	-1	-1.5	i
COc1ccc(C=C2SC(=S)N(CCCC(=O)Nc3ccc(C(=O)O)c(O)c3)C2=O)cc1OC	7.6	1	-3	3.8	i

Only MLL AF4-AF9 inh, for some of the entries so far:
SMILES,MLL AF4-AF9 inh
C[C@H]1CCCCO[C@@H](CN(C)C(=O)c2ccncc2)[C@@H](C)CN([C@@H](C)CO)C(=O)c2cc(NS(=O)(=O)c3ccc(F)cc3)ccc2O1,-1.3
C[C@@H]1CN([C@@H](C)CO)C(=O)c2cccc(NC(=O)Nc3ccc(F)cc3)c2O[C@H]1CN(C)Cc1ccncc1,-3.4

(continued)
SMILES	MLL AF4-AF9 inh	Ecoli rRNA inh	Ecoli rRNA inh OD600	Ecoli rRNA inh RFP	FGF22 binding
CCNC(=O)c1cc2c(c(-c3cccc(-c4cccc(C(=O)N(C)C)c4)c3)n1)[C@H](CCO)N(S(=O)C(C)(C)C)C2 (some centres undefined)	1.1	5	6	3.9	i
C#CCN1CC(COc2ccccc2)Oc2cccc(Oc3ccc(C(C)C)cc3)c2S1(=O)=O (centres undefined)	2.9	5	4	4.0	i
C/C=C/c1ccc2c(c1)O[C@@H](CN(C)C(=O)c1ccccn1)[C@@H](C)CN([C@@H](C)CO)S2(=O)=O	1.6	-2	1	0.2	i
O=C(N[C@@H]1CC[C@H](CC(=O)N2CCC(Cc3ccccc3)CC2)O[C@@H]1CO)c1cnccn1	-0.8	0	7	5.8	i
C[C@@H]1CCCCO[C@@H](CN(C)C(=O)C2CCCCC2)[C@H](C)CN([C@@H](C)CO)C(=O)c2cc(N(C)C)ccc2O1	9.3	-2	2	1.2	i
CC(C(=O)NC1CCCC1)n1c(C2CCCC2)nc2ccccc21 (centres undefined)	-1.2	7	10	-2.4	i
O=C(Cc1ccccn1)NCC[C@H]1CC[C@@H](NC(=O)Nc2ccccc2)[C@@H](CO)O1	1.7	6	12	-1.9	i
COc1ccc(S(=O)(=O)N2CCC3CC2c2cc(-c4ccc5c(c4)OCO5)ccc23)cc1 (centres undefined)	0.2	8	16	2.7	i
C[C@@H]1CCCCO[C@@H](CN(C)CC2CC2)[C@H](C)CN([C@@H](C)CO)C(=O)c2cc(NS(=O)(=O)c3ccc(F)cc3)ccc2O1	-0.5	1	-6	-1.2	i
CN1[C@@H]2Cn3c(ccc(C4=CCCCC4)c3=O)[C@H]1[C@@H](C(=O)NCc1ccc(F)cc1)[C@@H]2CO	-0.2	-1	-6	3.1	i
O=C(NCCc1c[nH]c2ccccc12)c1[nH]c(C(F)(F)F)nc1-c1ccccc1	-0.7	-2	-41	-7.5	i
C[C@@H]1CN([C@@H](C)CO)C(=O)c2ccccc2-c2ccccc2CO[C@@H]1CN(C)C(=O)c1ccccc1	-2.8	-2	1	-1.2	i
O=C(Nc1ccc2c(c1)[C@H]1C[C@@H](CC(=O)N3CCOCC3)O[C@H](CO)[C@H]1O2)NC1CCCCC1	1.0	3	8	0.2	i
CN1c2ccc(-c3ccc(F)cc3)cc2[C@@H]2[C@@H](CCN2C(=O)C2CCOCC2)[C@@H]1CO	2.7	-6	-5	0.3	i
C[C@H]1CN([C@@H](C)CO)C(=O)c2cc(NC(=O)CCC(F)(F)F)ccc2O[C@@H]1CN(C)Cc1ccncc1	-1.5	4	14	-2.9	i
COc1ccc(CN2C[C@@H](C)[C@H](OC)CN(C)C(=O)c3cc(NC(=O)c4nc5ccccc5s4)ccc3OC[C@H]2C)cc1	-1.4	-4	-1	0.8	i
CCc1ccc2cc3c(cc2n1)C(=O)c1ccccc1-3	0.6	-7	0	1.1	i
C[C@H]1CN([C@@H](C)CO)S(=O)(=O)c2ccc(-c3ccncc3)cc2O[C@H]1CN(C)Cc1ccc(Oc2ccccc2)cc1	2.9	-6	-3	0.9	i
O=C(NC1CCC1)[C@@H]1[C@@H](CO)[C@@H]2Cn3c(ccc(-c4ccccc4F)c3=O)[C@H]1N2C(=O)CC1CC1	-19	-2	1	-4.9	i
O=C(C1CC1)N1C[C@@H]2[C@H](c3ccccc31)[C@H](CO)N2C(=O)c1ccccc1F	0.1	0	5	-2.4	i
C[C@@H]1CCCCO[C@@H](CN(C)S(=O)(=O)c2cccs2)[C@@H](C)CN([C@H](C)CO)C(=O)c2cc(N(C)C)ccc2O1	1.7	-1	2	2.3	i
COc1cccc(-c2ccc3c(c2)O[C@@H](CN(C)Cc2cccnc2)[C@@H](C)CN([C@H](C)CO)S3(=O)=O)c1	5.0	-19	-29	-3.0	i
C[C@H](CO)N1C[C@H](C)[C@@H](CN(C)S(=O)(=O)c2cn(C)cn2)OCCCC[C@H](C)Oc2ccc(NS(=O)(=O)c3cn(C)cn3)cc2C1=O	-11	3	7	-2.0	i
COc1ccc(CN2C[C@H](C)[C@H](OC)CN(C)C(=O)c3cc(NC(C)=O)ccc3OC[C@@H]2C)cc1	0.2	1	1	0.7	i
C[C@H](CO)N1C[C@H](C)[C@H](CN(C)CC2CC2)Oc2cc(C#CC3CC3)ccc2S1(=O)=O	7.7	-4	-4	-0.8	i
C[C@@H]1CN([C@H](C)CO)C(=O)c2cc(NS(=O)(=O)c3cn(C)cn3)ccc2O[C@H]1CN(C)CC1CCCCC1	-2.0	3	3	-0.8	i
